Source: PubChem (National Center for Advancing Translational Sciences (NCATS))
2A StopGo: High Throughput Screening for Foot and Mouth Disease Virus Antivirals. human cells with a luciferase reporter of 2A StopGo recoding; control for the full effect not named in the record. Potency, µM (series often up to 57.9 µM), inactives show top-dose signal change, negative = less light. 1.2% of 410,000 active; active = well fitted falling curve with a large enough effect; inconclusive = small, poorly fitted or top-dose-only effect; inactive = no such curve, though single readings can be large or run the other way; tested in HEK293T cells; note: % is set by controls: 0 for no effect and ±100 for the full control effect; nearly all actives have a fitted effect of over 45% in size; luciferase light after 4 h
Cruzain noTriton: qHTS Assay for Promiscuous and Specific Inhibitors of Cruzain (without detergent); purified cruzain, Z-FR-AMC fluorescence, no detergent; Potency, µM, inactives show max response, negative = inhibition, usual class: inhibitors; 2.3% of 200,000 active;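 note: plate controls were enzyme without inhibitor for no effect and buffer without enzyme for full effect; nearly all actives have a fitted effect of over 40% in size; top concentration of the series not given in the record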
Target sequence (P25779 123-467 limits assumed): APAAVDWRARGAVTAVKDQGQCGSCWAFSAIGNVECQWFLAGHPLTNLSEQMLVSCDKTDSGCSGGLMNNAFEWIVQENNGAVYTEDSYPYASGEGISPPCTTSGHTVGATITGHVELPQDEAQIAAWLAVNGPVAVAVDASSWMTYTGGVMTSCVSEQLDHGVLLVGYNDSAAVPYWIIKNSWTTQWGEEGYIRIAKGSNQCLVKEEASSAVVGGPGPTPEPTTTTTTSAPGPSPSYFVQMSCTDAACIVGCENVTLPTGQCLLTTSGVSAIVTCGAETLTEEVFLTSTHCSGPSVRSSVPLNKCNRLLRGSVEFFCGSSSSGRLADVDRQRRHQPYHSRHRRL
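Detergent-free condition (0.00005% Triton X-100) in acetate buffer pH 5.5 with DTT. 1.5 nM enzyme and compound were pre-mixed 15 min, then 2 uM Z-FR-AMC substrate added; reaction progress from fluorescence change between first and third reads (60 s).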
LASV entry inh: qHTS for Inhibitors of binding or entry into cells for Lassa Virus. Lassa virus pseudotype entry inhibition, cell reporter; control for the full effect not named in the record. Potency, µM (doses to about 37.9 µM), inactives show at the highest dose activity change, negative = inhibition, most hits filed as inhibitors. 1.2% of 300,000 active; active means well fitted inhibition curve with a large enough effect; inconclusive means small, poorly fitted or top-dose-only effect, or effect the other way; inactive means flat fitted curve, though single readings scatter; tested in HEK293 cells; note: % is set by controls: 0 for no effect and ±100 for the full control effect; nearly all actives have a fitted effect of over 50% in size; luciferase read-out
Cruzain inh Det: qHTS Assay for Promiscuous and Specific Inhibitors of Cruzain (with detergent); Cruzipain (Trypanosoma cruzi), P25779; AID 1478, 2009; Potency, µM, for the others: max response, negative = inhibition, most hits filed as inhibitors; purified cruzain, Z-FR-AMC fluorescence, 0.01% Triton; 0.43% of 200,000 active;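 note: plate controls were neutral wells for no effect and buffer without enzyme for full effect; nearly all actives have a fitted effect of over 40% in size; top concentration of the series not given in the record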
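Compounds were screened in titration against cruzain (1.5 nM) with 0.01% Triton X-100 to counter colloidal aggregation. Activity was the AMC fluorescence increase over 60 s after adding 2 uM Z-FR-AMC at pH 5.5.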
Marburg entry inh: qHTS for inhibitors of binding or entry into cells for Marburg Virus. 1.8% of 300,000 active. Marburg virus pseudotyped entry inhibition, cell reporter; control for the full effect not named in the record; about a third of the inactives were read at about 46 µM. Potency, µM (series often up to 37.8 µM), without a hit: top-dose activity change, negative = inhibition, hits mostly inhibitors. AID 540276, 2011; active = well fitted inhibition curve with a large enough effect; inconclusive = small, poorly fitted or top-dose-only effect, or effect the other way; inactive = flat fitted curve, though single readings scatter; tested in HEK293 cells; about a fifth of its hits are not listed in these tables; note: % is set by controls: 0 for no effect and ±100 for the full control effect; luciferase read-out
NS1 inh: qHTS Assay for Inhibitors of Influenza NS1 Protein Function. 0.4% of 270,000 active. S. cerevisiae slowed by influenza A NS1, growth recovery by OD600. Potency, µM (series often up to 46.1 µM), for inactives: at the top dose activity, positive = more growth; active means well fitted rising curve with a large enough effect; inconclusive means small, poorly fitted or top-dose-only effect; inactive means no such curve, though single readings can be large or run the other way; note: nearly all actives have a fitted effect of over 50% in size
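Recovery from NS1-induced slow growth read by OD600 in budding yeast switched to galactose assay medium (pH 6.0, -URA) at 1:100 dilution. Compound 23 nl per well; the matching strain lacking NS1 serves as control.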
SARS PLP yeast: qHTS of Yeast-based Assay for SARS-CoV PLP. Potency, µM (highest dose often 32.9 µM), without a hit: at the highest dose activity, positive = growth rescue. S. cerevisiae expressing SARS-CoV PLpro, growth rescue; control for the full effect not named in the record. AID 485353, 2010. 0.19% of 330,000 active; active means well fitted rising curve with a large enough effect; inconclusive means small, poorly fitted or top-dose-only effect; inactive means no such curve, though single readings can be large or run the other way; note: 0% is about no effect; nearly all actives have a fitted effect of over 55% in size; growth read by luminescence after 48 h
RE007 growth inh: qHTS Assay for Inhibitors of the HIV-1 protein Vpr; S. pombe RE007 Vpr strain, BacTiter-Glo ATP luminescence, 24 h; control for the full effect not named in the record; Potency, µM (top dose mostly 92.2 µM), for inactives: top-dose activity change, negative = less growth; 0.21% of 360,000 active; AID 651644, 2012; active = well fitted falling curve with a large enough effect; inconclusive = small, poorly fitted or top-dose-only effect; inactive = no such curve, though single readings can be large or run the other way;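 note: % is set by controls: 0 for no effect and ±100 for the full control effect; nearly all actives have a fitted effect of over 50% in size; the assay follows cell death caused by Vpr and the record does not say whether a fall means rescue or toxicity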
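Fission yeast RE007 carrying one integrated HIV-1 vpr copy, seeded at OD 0.01 in PMG+AL medium with 23 nL pinned compound. Grown 24 h at 30 degrees; viability read by BacTiter-Glo luminescence after 5 min.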
* hit, by the source's call; ? = inconclusive; . = no result given; & = joins results of further samples; [ ] = remark or other dose. Unless noted, calls come from the whole dose curve; as a rule, active = well fitted curve in the direction sought with a large enough effect; inconclusive = small, poorly fitted or top-dose-only effect, or another doubt; inactive = no such curve, though single readings can be large; an effect the other way counts as inactive or inconclusive. Potency is the fitted concentration of half-maximal effect.

SMILES | 2A StopGo | Cruzain noTriton | LASV entry inh | Cruzain inh Det | Marburg entry inh | NS1 inh | SARS PLP yeast | RE007 growth inh
CC1CCCN(C(=O)c2ccc3c(c2)C(=O)N(CCC2=CCCCC2)C3=O)C1 (stereo not given) | -24% | 0% | -19% | -6.3% | -1% | -69% | 0% | 7%
Cc1cc(NC(=O)CSc2nnc(C(C)N(C)C)n2Cc2ccccc2)no1 (stereo not given) | -8% | -5% | -6% | 3.4% | 25% | -5% | 4% | 6%
COc1cccc(N/C(SCc2ccccc2F)=C(/C#N)C(=O)NCc2cccs2)c1 | 3% | ? | ? | -9.5% | -14% | 12% | -19% | 0%
O=C(Nc1ccc2ncccc2c1)c1ccccc1Br | 66%[activator] | . | ? | . | -4% | -68% | -28% | -28%
O=C(Nc1ccncc1)Nc1ccccn1 | 13% | 10% | 3% | 1.5% | -13% | -6% | 2% | -1%
COc1ccc(S(=O)(=O)N(CC(=O)NC2CCCCC2)c2ccc(F)cc2)cc1 | -16% | . | -27% | . | ? | -9% | 3% | -8%
CCC(=O)Nc1ccc(Cl)c(Cl)c1 | -15%&8% | -8% | . | -0.2% | . | . | . | -3%
O=C(CSc1cn(CCNC(=O)c2ccccc2F)c2ccccc12)NCC1CCCO1 (stereo not given) | ? | . | ? | . | -22% | -6% | -3% | 17%
O=C(CN1C(=O)CCc2cc(S(=O)(=O)N3CCOCC3)ccc21)Nc1cccc(Cl)c1 | 18% | 11% | -19%[46.1 µM] | -3.9% | . | . | . | .
Cc1nnc(NC(=O)c2cc3n(n2)C(C(F)(F)F)CC(C2CC2)N3)s1 (stereo not given) | -11% | -4% | 3% | 1.2% | 16% | -7% | 1% | 3%
Cc1ccc(OCC(=O)N/N=C\c2ccncc2)c(C)c1 | 7% | 12% | -10% | -1.3% | 20% | 7% | -4% | 3%
COc1ccc(/C=N/NC(=O)CCn2cnc(-c3ccccc3)c2-c2ccccc2)cc1 | ? | 12% | 2.3µM* | -7.8% | 18µM* | -18% | 0% | -2%
O=C(COc1ccc(S(=O)(=O)N2CCOCC2)cc1Cl)N1CCCC1 | -8% | . | 13% | . | -9%[46.1 µM] | 8% | -5% | 74%
COc1ccc(C)cc1NC(=O)NC1CCCCCCC1 | 13% | . | ? | . | ? | 7% | 2% | 8%
COC(=O)c1ccc2c(=O)[nH]c(COC(=O)c3c(-c4ccccc4)noc3C)nc2c1 | -21% | . | 0% | . | 0%[46.1 µM] | . | 1% | 3%
CCn1ccc2cc(S(=O)(=O)N3CCCN(C(=O)Nc4ccc(C)cc4)CC3)ccc21 | -7% | 4% | ? | -4.2% | . | . | . | .
Cc1[nH]nc(C(F)(F)F)c1N=NN1CCOCC1 | 20µM* | . | ? | . | ? | . | . | 3%
Cc1ccc(CN(C)C(=O)c2ccc3c(c2)NC(=O)CS3)o1 | 1% | . | . | . | . | -41% | -1% | 3%
O=C1c2cccc3cccc(c23)C(=O)N1CCc1ccccc1 | 12% | . | ? | . | ? | . | -2% | -12%
O=C(NCCc1ccccc1)c1cccc(S(=O)(=O)N2CCCCC2)c1 | 13% | . | -34% | . | ? | -7% | 6% | 6%
COc1ccc(CNC(=O)CN2CCN(C(c3ccccc3)c3ccccc3)CC2)cc1 | 0% | . | ? | . | ? | . | 0% | 3%
O=C(COc1ccccc1F)N/N=C1\CCCc2ccccc21 | 6% | -13% | -27% | -4.0% | 2% | 5% | 3% | 6%
CC1=C(C(=O)Nc2ccc(F)cc2)C(c2ccncc2)C2=C(CCCC2=O)N1 (stereo not given) | -18% | -1% | 2% | -5.1% | -3% | -4% | ? | -4%
C=CCOc1ccc(NC(=O)C2CC(=O)N(C(C)C)C2)cc1 (stereo not given) | -4% | 4% | 0% | 3.8% | 79% | -2% | 11% | 2%

Copied from the list:
O=C(CN1C(=O)CCc2cc(S(=O)(=O)N3CCOCC3)ccc21)Nc1cccc(Cl)c1 | LASV entry inh: -19%[46.1 µM]
O=C(NCCc1ccccc1)c1cccc(S(=O)(=O)N2CCCCC2)c1 | NS1 inh: -7%

(further entries)
SMILES | 2A StopGo | Cruzain noTriton | LASV entry inh | Cruzain inh Det | Marburg entry inh | NS1 inh | SARS PLP yeast | RE007 growth inh
CCCC(C)C(=O)Nc1nc(C)c(-c2csc(Nc3cc(OC)ccc3OC)n2)s1 (stereo not given) | -3% | ? | . | -1.7% | . | 27% | 2% | 13%
COc1ccc(C(C)NC(=S)NCc2ccc(F)cc2)cc1 (stereo not given) | 2% | . | ? | . | -16%[46.1 µM] | -33% | 20% | 5%
COc1cc(CN2CCCC(N3CCN(c4ccc(F)cc4)CC3)C2)ccc1F (stereo not given) | -5% | . | . | . | . | ? | 9% | -5%
Cc1cc(C)n2nc(C(=O)N3CCCC(CNS(=O)(=O)c4cccs4)C3)cc2n1 (stereo not given) | 9% | . | . | . | . | -1% | 1% | -1%
O=C(CSc1nnc(-c2ccco2)o1)N1c2ccccc2CCc2ccccc21 | . | ? | -30% | -7.3% | ? | -46% | -17% | -5%
COC(=O)c1ccc2c(c1)NC(=O)C(N1CCOCC1)S2 (stereo not given) | -2% | 0% | 7% | 7.3% | 12% | -10% | -28% | 1%
C=CCn1c(SCC(=O)NCC2CCCO2)nnc1-c1ccccc1 (stereo not given) | 8% | . | . | . | . | 0% | -1% | 4%
Nc1ncn(-c2ncc(C(F)(F)F)cc2Cl)n1 | -14% | . | -26%[46.1 µM] | . | -3%[46.1 µM] | 2% | -2% | 9%
O=C(COC(=O)/C=C/c1ccccc1)NCCC1=CCCCC1 | 13% | 1% | . | -5.0% | . | -13% | 3% | 2%
CCN1CCN(CCCNC(=O)Cn2nc(C)n3c(cc4cc(C)ccc43)c2=O)CC1 | -12% | -14% | . | -2.2% | -13%[46.1 µM] | . | . | .
COC(=O)C1=C(C)NC(=O)C1(NC(=O)c1cc(OC)c(OC)c(OC)c1)C(F)(F)F (stereo not given) | -7% | 6% | 2%[46.1 µM] | -0.9% | 2%[46.1 µM] | . | . | .
COc1ccc2oc(C(=O)N(C)Cc3ccc(OC(F)F)cc3)c(C)c2c1 | 13% | . | -7% | . | ? | -21% | -9% | 25%
CC(=O)N[C@@H](Cc1c[nH]c2ccccc12)C(=O)NCc1ccccc1 | 8% | . | -10%[46.1 µM] | . | ? | 2% | -5% | 6%
N#CC1(NC(=O)COC(=O)c2nc(Cl)c(Cl)c(N)c2Cl)CCCCC1 | -1% | . | ? | . | 26% | . | 0% | 7%
CCc1ccc(N2CCn3c2nc2c3c(=O)n(C/C=C/c3ccccc3)c(=O)n2C)cc1 | 6% | 3% | -7%[46.1 µM] | -1.5% | . | . | . | .
CCC[C@H]1COCCS(=O)(=O)N1Cc1ccccc1F | 1% | . | . | . | . | -8% | -8% | -17%
CC(C)(C)c1ccc(C2C(C(=O)c3ccco3)=C(O)C(=O)N2CC2CCCO2)cc1 (stereo not given) | 3% | . | 3%[46.1 µM] | . | 6%[46.1 µM] | 14% | 1% | 13%
CC(CNc1ccc([N+](=O)[O-])cc1)NC(=O)c1ccccc1Br (stereo not given) | . | -20% | 5% | -3.1% | 2% | 2% | 2% | 0%
O=C(O)CCc1ccc(-c2cccs2)n1NC(=O)c1ccc(Cl)cc1Cl | 8% | 6% | 4% | -3.0% | -3% | 9% | 9% | -10%
COc1ccc(N2CCN(C3CCCN(C(=O)CSC)C3)CC2)cc1 (stereo not given) | -17% | . | . | . | . | -1% | -2% | -20%
CC1=CC(C)(C)N2C(=O)C3(C(C#N)=C(N)Oc4cc(O)ccc43)c3cccc1c32 (stereo not given) | -25% | 5% | -1% | -13% | -7% | -7% | -2% | 12%
COC(=O)C1C2CC3c4[nH]c5cc(OC)ccc5c4CCN3CC2CC(OC(=O)CC(C)=O)C1OC (stereo not given) | 1% | . | 30%[46.1 µM] | . | ? | . | . | -24%
Cc1ccc(C)c(N2CCN(S(=O)(=O)c3cc4c(cc3Cl)NC(=O)CO4)CC2)c1 | ? | . | . | . | . | 3% | 4% | 2%
Cc1ccc2c(c1)nnn2C1CCN(CC(=O)NCc2ccccc2F)CC1 | -5% | . | 7%[46.1 µM] | . | 11%[46.1 µM] | -6% | 2% | 16%
CC(NC(=O)COC(=O)CCc1ccccc1)c1ccccc1 (stereo not given) | 2% | 9% | 17% | 2.2% | ? | -23% | 6% | -6%
COCc1nnc(NC(=O)c2ccccc2Oc2ccccc2)s1 | -3% | . | 4%[46.1 µM] | . | 9%[46.1 µM] | -6% | 2% | -5%
Cc1nc(C(=O)NC2CC2)sc1C1(C)CC(c2cccc([N+](=O)[O-])c2)=NO1 (stereo not given) | -19% | . | . | . | . | -6% | 1% | 4%
COc1ccc(CNC(=O)CN(CCC(C)C)S(=O)(=O)c2ccc3c(c2)OCCO3)cc1 | 3% | 0% | -2% | -4.0% | -3% | -11% | 14% | 2%
CCCCCC(=O)NNC(=O)c1ccc(-c2ccccc2)cc1 | 0% | ? | 7% | -3.0% | 17% | 2% | 4% | 9%
COc1cccc(CNC(=O)Cc2ccc(NC(=O)N3CCSc4ncccc43)cc2)c1OC | -14% | 5% | -11%[46.1 µM] | -6.5% | . | . | . | .
Cc1ccc(NC(=O)c2sc3ncn(Cc4cccc(F)c4)c(=O)c3c2C)c(Br)c1 | 5% | -10% | 19%[46.1 µM] | -0.4% | . | . | . | .
O=C(O)/C=C/c1ccc(OCc2cccc(F)c2)cc1 | -13% | . | -24% | . | ? | . | -4% | -5%
COc1cc(OC)cc(C(=O)OCC(=O)NC(C)CCc2ccccc2)c1 (stereo not given) | 4% | . | . | . | -15%[46.1 µM] | -3% | -1% | -1%
COc1ccc2oc(=O)c(C(=O)NCc3ccc(C)cc3)cc2c1 | 5% | . | . | . | . | -9% | -1% | 1%
